Compound activity as filed in PubChem.
Bead autofluor: compound fluorescence in toxin protease inhibitor counterscreen; AID 624483; 360,000 compounds, 3.1% hits; fluorescence intensity (no concentration beside the values); compound autofluorescence counterscreen, microsphere flow cytometry; hits give high values;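 active = at least 3 SD above the mean of all compounds, about 16000 in these data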;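 note: 100 nL of 1 mM stock went into each well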
Mtb hypoxia rep: reduces hypoxia-regulated biosensor signal in M. tuberculosis | M. tuberculosis hypoxia-regulated fluorescent reporter, fluorescence | fluorescence inhibition, % (test concentration not listed) | 300,000 compounds, 0.1% hits | AID 1159583;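 active = 35 to 45% if threefold the growth effect, above 45% if 1.5-fold the growth effect; inactive = the rest, general growth blockers included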;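 note: wells of about 50 µL received 100 nL stock; 0% = vehicle wells and 100% = reference inhibitor wells; whole bacteria with a GFP reporter of the hypoxia response; strong numbers were not always called active; many hits fall short of the cut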
PrP 5UTR inh: suppresses PrP 5' UTR mRNA reporter expression; cell-based PrP 5' UTR mRNA reporter, plate reader; inhibition, % (test concentration not listed); 340,000 compounds, 0.35% hits; AID 488862;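 active = every replicate at 50% or more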;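 note: 0 = median of the neutral control wells; tested in H4 reporter cells; numbers are from one replicate; inactives centre near -14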
RN4220 kill: kills Staphylococcus aureus RN4220 | S. aureus RN4220 growth, OD600, 16 h | inhibition, % (concentration not given with the values) | 330,000 compounds, 0.33% hits;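 active = z-score of -3 or lower and OD600 up to 0.18 on both plates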;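 note: plate controls were untreated cells for no effect and reference antibiotic for full effect; stock transfer was 100 nL into about 80 µL; one replicate is shown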
BJeLR lethal: kills HRASV12-expressing BJeLR cells; BJeLR (HRASV12) viability, CellTiter-Glo ATP luminescence, 48 h; reference of the scale not given here; inhibition, % (test concentration not listed); 300,000 compounds, 0.17% hits;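 active = replicate mean above 50%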;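 note: 50 nL library stock added to about 25 µL; numbers are from one replicate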
ugtP null kill: compounds lethal to S. aureus RN4220 ugtP deletion mutant | OD600 growth, 16 h; some inactives read as strong as hits | growth inhibition, % (no concentration beside the values) | 330,000 compounds, 0.54% hits | AID 1259309;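 active = z-score under -3 and OD600 up to 0.15 on both plates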;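 note: plate controls were untreated wells for no effect and antibiotic for full effect; wells of about 80 µL received 100 nL stock; the first replicate is given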
Mtb hypoxia rep growth: also measured in Mtb hypoxia rep; calls as there; growth inhibition, %; measured here: M. tuberculosis growth (absorbance);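 0% = vehicle and 100% = reference antibiotic; read after six days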
Starred values were filed as active, the others as inactive; x = no result given.

SMILES	Bead autofluor	Mtb hypoxia rep	Mtb hypoxia rep growth	PrP 5UTR inh	RN4220 kill	BJeLR lethal	ugtP null kill
CN(Cc1ccco1)S(=O)(=O)c1nnc(NC(=O)c2ccccc2Cl)s1	5436	2.3	7.6	-25.4	4.0	-3.0	2.3
Cc1c(NC(=O)c2cc(-n3cnnc3)ccc2Cl)cccc1-c1nc2ccccc2s1	22973*	0.3	-2.8	-62.4	6.5	11.9	-3.6
COC(=O)c1sccc1-c1ccc(C(=O)Nc2ccccc2)o1	19373*	8.0	5.7	-62.3	10.6	-1.7	-18.6
C=C[C@H]1[C@H](OC2OC(CO)C(O)C(O)C2O)OC=C(C(=O)OC)[C@H]1C[C@H]1CC(=O)C[C@H](CC(=O)CCc2ccc(O)cc2)O1 (stereo partly drawn)	x	x	x	x	3.1	2.1	5.1
Cc1cc(C2=NNC(=NCc3ccccc3)SC2)c(C)n1-c1c(C)n(C)n(-c2ccccc2)c1=O	2121	-9.8	2.3	-9.8	-2.0	-2.7	-11.4
CC(=NNS(=O)(=O)c1ccc(Br)cc1)c1cccs1	x	9.7	-0.2	x	12.2	x	6.5
Cc1cc(=O)[nH]c(SCC(=O)N2CCCC2)n1	4424	5.8	7.9	-9.5	6.7	x	4.7
CCc1ccccc1NC(=S)NC1CC2CCCC(C1)N2Cc1cccs1 (stereo not drawn)	8035	-4.3	-2.5	-51.2	8.3	-0.2	7.7
CC(C)OC(=O)NC(c1ccccc1)C(Cl)(Cl)Cl (stereo not drawn)	1938	17.9	10.6	2.1	4.6	2.3	8.9
CC(C)C1C(=NO)CC(c2ccccc2)NC1c1ccccc1 (stereo not drawn)	x	5.8	-2.5	x	1.4	x	5.6
CCCCN1CC[C@@H]2C=CC[C@H](C(=O)OC)[C@@H]2C1=O	3896	4.4	6.6	-40.8	3.3	x	-2.2
Cc1ccc(S(=O)(=O)N2CCN(Cc3cccc(C)c3O)CC2)cc1	3137	23.7	-18.7	-11.1	-15.3	-3.4	-1.2
O=C(NN=Cc1ccccc1)c1[nH]c2ccc(Br)cc2c1-c1ccccc1	x	5.4	0.1	x	-3.2	x	-14.0
COCc1c(C(=O)OC)nnn1-c1ccc(C(F)(F)F)cc1[N+](=O)[O-]	3741	-5.8	4.6	-16.0	6.1	-3.2	2.1
O=C(CSc1nnc2ccccn12)c1ccc(Cl)cc1	4107	-0.1	1.1	-20.3	4.2	-2.7	4.1
Cc1ccc(S(=O)(=O)NN=Cc2ccccc2O)cc1[N+](=O)[O-]	x	1.9	9.9	x	3.3	x	8.0
Cc1nc(C)c(-c2ccnc(/N=C/NO)n2)s1	3890	x	x	-13.8	x	-0.7	x
Cc1nc(SCC(=O)Nc2cccc(S(=O)(=O)N3CCOCC3)c2)nc(C)c1C	3903	4.4	3.4	-13.9	3.4	x	-0.6
O=C(Nc1cccc(Oc2ccc3c(c2)C(=O)NC3=O)c1)c1ccco1	9049	-0.3	14.0	-7.1	1.8	0.0	-12.4
CC(=O)c1c(-c2ccc(Cl)cc2Cl)noc1C	3517	11.0	8.5	-21.4	3.3	-3.6	6.5
Cc1cccnc1Nc1nc(-c2ccc(F)cc2)cs1	4194	9.6	-9.2	-83.3	-5.0	0.2	46.2
C=CCNC(=S)NN(c1ccccc1)c1ccccc1	4364	7.4	7.2	-20.6	5.2	3.0	-4.6
COc1ccc(C(=O)Nc2ccccc2-c2ccccc2)cc1Cl	2470	6.3	-7.6	-11.7	2.3	-24.0	-5.4
Cc1ccc(S(=O)(=O)NC(C)C(c2cccs2)N2CCN(C)CC2)cc1 (stereo not drawn)	9755	0.7	1.9	-2.9	-1.0	-1.3	5.2
CCN(CC)C(=O)Cn1cc(SCC(=O)Nc2cc(C)on2)c2ccccc21	4187	7.7	17.7	-32.9	11.1	-6.6	5.8
O=C(CSc1nc(=O)n2ccccc2n1)N1CCN(c2ccccc2)CC1	x	2.7	-3.0	-5.8	5.5	5.2	7.7
O=C(OCc1nnc(-c2ccc([N+](=O)[O-])cc2)o1)C1CCN(C(=O)c2ccc(Cl)cc2)CC1	3619	11.1	2.9	-22.3	2.3	x	-6.1
O=C(Cc1cccs1)N1CCN(S(=O)(=O)c2ccc(F)cc2)CC1	4551	-9.0	-21.0	-11.3	1.0	-6.7	0.5
COc1cccc(C=NNc2ccccc2C(=O)O)c1O	x	-0.7	-8.7	x	6.2	x	-11.3
Cc1ccc(NC(=O)CS(=O)CC(=O)NCCCN(C)c2ccccc2)cc1 (stereo not drawn)	11637	6.0	7.4	-16.2	6.6	-9.6	3.2
O=C(COC(=O)Cc1ccccc1)Nc1ccc(Cl)cn1	3976	7.4	6.2	-42.6	14.1	8.7	4.7
CC(=O)NC(c1cccc([N+](=O)[O-])c1)c1ccc2cccnc2c1O (stereo not drawn)	3800	x	x	31.0	x	35.1	x
CCCCc1nc2cc(C(=O)NC(C)c3cnn(C)c3)ccc2o1 (stereo not drawn)	6091	2.3	5.2	-41.4	2.3	-1.5	2.0
Cc1ccc(NC2=CC(=O)OC(C)C2)cc1 (stereo not drawn)	3282	2.3	5.5	-22.9	2.8	-2.2	-5.1
COCCn1c(C)cc(/C=C(\C#N)C(=O)OC(C)C(=O)Nc2ccc(NC(C)=O)cc2)c1C (stereo not drawn)	x	2.0	1.5	-14.0	2.2	-10.5	1.2
O=C1N(CCCl)c2ccc(Br)cc2C12OCCO2	3384	8.6	4.7	-21.5	3.3	-14.7	7.0
COc1ccccc1N1CCN(C(=O)CSc2ncnc3scc(-c4ccccc4)c23)CC1	2654	1.6	2.6	-5.3	4.9	3.5	1.7
CCOC(=O)C1=C(C)NC(C)=C(C(=O)OCC)C1C(=O)OCC(=O)NCCc1ccccc1	3767	14.4	2.9	-23.6	-3.2	x	5.6
CCCOc1ccc(C2C(C(=O)c3cc4ccccc4o3)=C(O)C(=O)N2c2cc(C)on2)cc1OC (stereo not drawn)	5079	-5.8	-1.6	-22.5	99.2*	-2.6	100.2*
N#Cc1ccccc1S(=O)(=O)N1CCN(C(=O)c2cn(-c3ccccc3)nc2-c2cccnc2)CC1	9109	9.4	1.4	-17.7	4.6	x	1.2
Cc1ccc(NC(=O)C2CCCN(S(=O)(=O)c3ccc4c(c3)oc(=O)n4C)C2)nc1 (stereo not drawn)	5941	8.2	3.7	-10.4	5.8	7.4	7.7
CCOC(=O)Cn1cc(Cl)cc(C(=O)Nc2ccccc2)c1=O	4003	-9.4	3.2	-26.4	1.7	4.1	2.9
CCN(CC(=O)Nc1c(F)cccc1F)C(=O)CCNC(=O)c1ccccc1OC	5376	3.3	-1.5	-14.8	3.4	-8.7	-5.4
O=C(CSc1nnc(SCc2ccc(Cl)cc2)s1)N/N=C/c1c(Cl)cccc1Cl	2491	x	x	-18.9	x	1.1	x
COc1ccc2cnn(CCOc3cc(C)ccc3C(C)C)c(=O)c2c1OC	6796	-6.7	-4.4	-6.9	10.1	-8.3	35.1
Cc1ccc(NC(=O)CCCN2C(=S)NC(C)(C)CC2C)cc1 (stereo not drawn)	3230	-5.1	8.5	-19.0	-0.7	3.3	-1.4
CCOc1ccc(N(CC(=O)Nc2ccccc2C(=O)N2CCCC2)S(C)(=O)=O)cc1	3526	12.7	0.6	-23.9	2.3	2.7	14.0
CC(=O)c1cccc(N=C2NC(=O)C(CO)(CO)S2)c1	2839	x	x	-16.5	3.9	7.7	-1.9
CCC(C)C1NC(=S)N(C2CCCCC2)C1=O (stereo not drawn)	11038	-1.2	2.3	7.4	-0.5	-0.9	13.3
CCCOc1ccc(CCN2CCC(=O)NC2=O)cc1C	2585	x	x	1.9	1.6	-10.4	5.2
O=C(Cn1cnc2c(NCc3ccccc3)ncnc21)NCCN1CCOCC1	2945	-9.6	-5.9	3.9	-6.7	x	-8.7
Cc1noc(C)c1COC(=O)c1csc2c1CCC(C)C2 (stereo not drawn)	2826	0.0	-2.2	-27.1	0.2	x	22.8
CC(CC(=O)Nc1nncs1)c1ccccc1 (stereo not drawn)	2602	5.7	5.8	-1.6	1.9	-2.6	0.1
Cc1ccc2c(c1)N(Cc1cccc(F)c1)C(=O)C(C)O2 (stereo not drawn)	3691	5.8	6.0	-15.9	4.5	-4.7	9.3
COc1ccccc1C1CCN(Cc2cccc(C(=O)N3CCC(O)CC3)c2)CC1	3719	-12.7	-5.8	-3.6	5.0	1.9	19.0
COc1ccc(S(=O)(=O)N2CCCCC2)cc1NC(=O)CN1CCN(C(C)=O)CC1	3899	-0.8	-5.7	-52.0	3.8	0.1	7.5
COC(=O)CN(C#N)c1nc(OC)nc(N(C)C)n1	17155*	2.8	0.1	-23.4	-6.3	-0.4	-4.0
Oc1ccc(/C=N/NC(=S)Nc2cccnc2)c(O)c1	2511	x	x	-20.8	x	-7.5	x
CN1CCN(CCC(=O)N/N=C/c2ccccn2)CC1	3868	x	x	-41.9	x	5.0	x
CC(CC(=O)O)Nc1ccccc1O (stereo not drawn)	4600	0.0	-4.8	-25.3	-0.7	3.7	-4.6

A draw from above in order of formula weight, smallest number first:
SMILES	Bead autofluor	Mtb hypoxia rep	Mtb hypoxia rep growth	PrP 5UTR inh	RN4220 kill	BJeLR lethal	ugtP null kill
CC(CC(=O)Nc1nncs1)c1ccccc1 (stereo not drawn)	2602	5.7	5.8	-1.6	1.9	-2.6	0.1
CN1CCN(CCC(=O)N/N=C/c2ccccn2)CC1	3868	x	x	-41.9	x	5.0	x
Oc1ccc(/C=N/NC(=S)Nc2cccnc2)c(O)c1	2511	x	x	-20.8	x	-7.5	x
CCCOc1ccc(CCN2CCC(=O)NC2=O)cc1C	2585	x	x	1.9	1.6	-10.4	5.2
Cc1noc(C)c1COC(=O)c1csc2c1CCC(C)C2 (stereo not drawn)	2826	0.0	-2.2	-27.1	0.2	x	22.8
COc1ccccc1C1CCN(Cc2cccc(C(=O)N3CCC(O)CC3)c2)CC1	3719	-12.7	-5.8	-3.6	5.0	1.9	19.0

Continued.
SMILES	Bead autofluor	Mtb hypoxia rep	Mtb hypoxia rep growth	PrP 5UTR inh	RN4220 kill	BJeLR lethal	ugtP null kill
CCCc1c(C(=O)NN=Cc2ccc(OC)c(OCc3ccccc3)c2)nnn1-c1nonc1N	x	5.2	-1.8	x	14.0	x	1.4
CC(C)(C)c1ccc(C2CC2C(=O)NN=Cc2cc3ccccc3nc2Cl)cc1 (stereo not drawn)	x	-4.1	0.6	x	-2.3	x	10.0
C(=NNc1nc(N2CCCC2)nc(N2CCCC2)n1)c1ccncc1	x	15.7	1.0	x	3.3	x	7.0
COc1ccc(NC(=O)CC2Nc3ccccc3NC2=O)c([N+](=O)[O-])c1 (stereo not drawn)	4476	17.5	1.1	9.1	4.6	-3.9	4.2
COc1cc(/C=C/C(=O)OCC(=O)Nc2cccc(F)c2)ccc1O	3792	7.7	12.1	-5.7	0.0	x	34.6
CCOc1ccccc1Nc1nnc(SCC(=O)NC(=O)c2cccn2C)s1	2574	x	x	0.8	x	-17.2	x
COc1ccc(S(=O)(=O)NC(Cc2ccccc2)C(=O)O)cc1 (stereo not drawn)	3124	16.0	-3.3	-13.0	1.4	2.9	5.9
c1ccc(-c2ccccc2-c2nc(-c3cccnc3)no2)cc1	2596	x	x	-18.5	2.4	-0.9	15.1
CC1Cc2ccccc2N1C(=O)COC(=O)c1ccc(O)cc1 (stereo not drawn)	4324	3.7	2.0	-5.0	7.8	-7.9	7.4
CCOC(=O)N1CCN(c2cc(N3CCOCC3)c(F)cc2[N+](=O)[O-])CC1	3857	4.1	8.5	-10.0	2.1	5.7	2.5
O=C(NCc1ccc2c(c1)OCO2)c1cccc(C(=O)NCc2ccc3c(c2)OCO3)c1	3491	7.3	10.9	-28.5	2.8	2.4	9.8
C/C(CC(=O)NCc1ccco1)=N\NC(=O)Cc1ccc(-c2ccccc2)cc1	2537	x	x	0.1	x	2.4	x
O=[N+]([O-])c1ccc(N2CCN(Cc3ccc([N+](=O)[O-])o3)CC2)cc1	3274	x	x	-21.7	11.8	3.5	26.1
CCc1cn([C@H]2C[C@H](O)[C@@H](CO)O2)c(=O)[nH]c1=O	5604	x	x	-5.1	x	2.1	x
CCCCn1c(O)c(C(CC)=Nc2cccc(C(=O)O)c2)c(=O)[nH]c1=O	2934	14.7	8.9	-20.0	-6.1	5.9	-0.8
